Screens deposited in PubChem BioAssay by National Center for Advancing Translational Sciences (NCATS).
VACV Venus inh = inhibitors of vaccinia virus (Venus reporter). 330,000 compounds, 0.46% hits. Potency, µM (top dose mostly 36.5 µM), inactives show top-dose activity change, negative = inhibition, usual class: inhibitors. Vaccinia virus Venus reporter expression, fluorescence; active means well fitted inhibition curve with a large enough effect; inconclusive means small, poorly fitted or top-dose-only effect; inactive means no such curve, though single readings can be large or run the other way; tested in A549 cells; note: nearly all actives have a fitted effect of over 30% in size; inactives centre near -10
Vaccinia mCherry = inhibitors of vaccinia virus infection (mCherry reporter signal). 310,000 compounds, 0.63% hits. AID 720579. Potency, µM (series often up to 36.5 µM), inactives show at the highest dose activity change, negative = inhibition, most hits filed as inhibitors. Vaccinia virus mCherry reporter infection, fluorescence; about a quarter of the inactives have no number; active = well fitted inhibition curve with a large enough effect; inconclusive = small, poorly fitted or top-dose-only effect; inactive = no such curve, though single readings can be large or run the other way; tested in A549 cells; note: nearly all actives have a fitted effect of over 35% in size; inactives centre near -10
Active calls of the source: *; i = inactive; ? = inconclusive; . = not tested or not shown; & = joins results of further samples; [ ] = another dose, or the depositor's remark. % is set by controls: 0 for no effect and ±100 for the full control effect; potency is the fitted concentration of half-maximal effect.

molecule	VACV Venus inh	Vaccinia mCherry
CC(Oc1cccc(Br)c1)C(=O)Nc1cccc(S(=O)(=O)N2CCOCC2)c1 (stereo not given)	-26%	-8%
CCN(C(=O)Cc1c(C(=O)O)[nH]c2ccccc12)c1ccc(OC)cc1	-4%&1%	?
COc1ccc(-c2nnc(SCC(=O)c3ccco3)n2-c2ccccc2)cc1	7%	.
O=C(NNC(=O)c1ccccn1)c1cccc([N+](=O)[O-])c1	?	-26%
CC(C)Cn1c(N)c(C(=O)CSc2ncnc3sc4c(c23)CCCC4)c(=O)n(C)c1=O	-9%	i
COc1ccc(Nc2nnc(SCc3cc(=O)n4ccsc4n3)s2)cc1	-15%	-3%
COC(=O)c1c(NC(=O)Nc2ccc(Cl)cc2)sc(C)c1C	-23%&-25%	-13%&-23%
O=C(Nc1cccc(OC(=O)c2cccnc2)c1)c1cccnc1	-7%	?
CCn1c(SCc2nc3ccccc3c(=O)[nH]2)nc2ccccc21	-25%	-23%
O=C(CN1C=NS(=O)(=O)c2ccc(C(F)(F)F)cc21)Nc1cccc(C(F)(F)F)c1	-9%	-2%
COC(=O)[C@H]1C[C@H](O)CN1S(=O)(=O)c1ccc(Br)cc1F	-8%	-27%
COc1ccc(C(=O)COC(=O)CCCC(=O)Nc2ccc(C(C)=O)cc2)cc1	5%	-9%
COc1ccccc1CNS(=O)(=O)c1c(C)noc1C	-3%	-12%
Cc1ccc(-c2nnc(Nc3ccc(F)cc3)c3ccccc23)cc1S(=O)(=O)NC(C)C	-30%	-19%
Cc1ccccc1NN=Nc1nc2c([nH]1)c(=O)n(C)c(=O)n2C	-5%	-18%
CCN(CC)C(=O)CSc1nnc(CNc2ccc(F)cc2)n1Cc1ccco1	-11%	i
CC(Cc1ccccc1)C(=O)N[C@@H](CO)Cc1ccccc1 (stereo not given in full)	-8%	-24%
CCCS(=O)(=O)c1c(S(=O)(=O)CCC)c2cc(CC)ccn2c1C(=O)c1ccc(OC)cc1	-9%	i
O=C1c2cccc3c(Cl)ccc(c23)C(=O)N1O	-13%	i
N#Cc1ccccc1CSc1nc(N2CCCCC2)nc(N2CCCCC2)n1	-12%	.
CCCn1c(C)cc(C(=O)CN2C(=O)c3ccccc3S2(=O)=O)c1C	-13%	i
Cc1ccc(/C=C/C(=O)c2ccccc2O)cc1	-15%	-2%
COC(=O)N1C(=O)[C@@](Cc2ccccc2)(c2ccccc2)N1C(=O)OC	?	?
O=C(COc1cc(O)c2c(=O)cc(-c3ccccc3)oc2c1)c1ccc(F)cc1	2%	-6%
COC(=O)c1cn(-c2nc3ccccc3s2)nn1	-13%	-8%
COc1cc(Cl)ccc1Nc1ncc(C(=O)N2CCN(c3ccccc3OC)CC2)c2ccccc12	-21%	?
CCCCNC(=O)c1c(CSc2ccc(Cl)cc2)noc1C(=O)NCCC	-13%	i
CCc1ccc(C(C)(O)C(CN2CCOCC2)c2ccccc2)cc1 (stereo not given)	-21%	-4%
COc1ccccc1NC(=O)C(=O)NCC(c1ccc2c(c1)OCO2)N1CCN(C)CC1 (stereo not given)	-8%	-12%
C[C@@H](C(=O)O)[C@@H]1C[C@@]1(C)[C@@H](NC(=O)OCc1ccccc1)c1ccccc1	5%	i
O=C1CSC(c2cccnc2)N1CC1CC1 (stereo not given)	-18%	-26%
CC[C@]12c3[nH]c4cc(CCC(=O)N(C)C)ccc4c3CCN1C(=O)[C@@H](CC(=O)NCc1ccco1)C[C@@H]2C(=O)N1CCN(C(=O)C2CC2)CC1	-7%	-12%
CCc1cccc(C)c1NC(=O)c1cc(-c2ccncc2)nc2ccccc12	6%	-6%
O=C(CN1C(=O)/C(=C/c2ccccc2)SC1=S)Nc1ncc(Cc2ccccc2)s1	-2%	i
Cc1c(NC(=O)C(C)N2C(=O)C3CCCCC3C2=O)c(=O)n(-c2ccccc2)n1C (stereo not given)	-2%	9%
COC(=O)[C@]1(C)N[C@H](CN(C)C(=O)NC(C)C)[C@@H]2C(=O)N(C)C(=O)[C@@H]21	-15%	i
Cc1ccc(/C=C/S(=O)(=O)Nc2ccc(C)cc2)cc1	-6%	i
Cc1cccc(-c2nc(C#N)c(NCC3CCCO3)o2)c1 (stereo not given)	-3%[7.34 µM]	-6%[7.34 µM]
Cc1ccc(C2=NC(C(F)(F)F)(C(F)(F)F)c3c(n(-c4ccc(F)cc4)c(=O)[nH]c3=O)N2)cc1	?	?
O=C(c1ccccc1)c1nc2c(n1O)CCCCC2	-4%	i
CCCN(CCC)C1=N/C(=C\c2ccco2)C(=O)N1c1ccccc1	-16%	-15%[1.46 µM]
CCNC(=O)COC(=O)/C=C/c1ccccc1[N+](=O)[O-]	?	-8%
Cc1c(CN2CCC(CO)(CCOc3ccccc3)CC2)[nH]c2c(Cl)cccc12	?	?
COc1ccc([C@H]2CC(=O)C[C@@H](CCn3cc(C(C)C)nn3)O2)cc1	-9%	0%
O=C1NC(c2ccc(-c3ccccc3[N+](=O)[O-])o2)C(C(=O)c2ccc(F)cc2)C(O)(C(F)(F)F)N1 (stereo not given)	-10%	-10%

(next part)
Values run as follows: VACV Venus inh	Vaccinia mCherry
> Cc1c(C(=O)N2CCC(C)CC2)c(S(=O)(=O)NCc2ccc(Br)cc2)c(C)n1C
 : -13%	-18%
> CCOC(=O)C1(C)CCN1C(=O)c1ccc(C(C)(C)C)cc1 (stereo not given)
 : -5%	-8%
> O=C1NCCN2CCCC12 (stereo not given)
 : -13%	-23%
> Cc1cc(C)cc(C(=O)NCC(=O)OCN2C(=O)c3ccccc3C2=O)c1
 : -13%	-13%
> CCC(=O)Nc1nnc(SCC(=O)Nc2ccc3c(c2)OCO3)s1
 : -5%	i
> Cc1onc(-c2ccccc2Cl)c1C(=O)NNC(=O)c1ccccc1F
 : 2%	13%
> COc1ccc(C(=O)NC(=S)N(CCC(C)C)c2c(N)n(Cc3ccccc3)c(=O)[nH]c2=O)cc1
 : -4%	-13%
> COc1ccc(CCNC(=O)c2ccc([N+](=O)[O-])cc2Cl)cc1OC
 : -12%	-10%
> CC(C)(C)S(=O)N1Cc2cc(C(=O)N3CCc4ccccc4C3)nc(-c3cccc(-c4ccncc4)c3)c2[C@H]1CCO (stereo not given in full)
 : -4%	22%
> CCc1ccc2[nH]c(=O)c(CN(CCN3CCCC3)C(=O)NC3CCCCC3)cc2c1
 : -28%	.
> N#Cc1cc2ccccc2nc1N
 : -11%	-9%
> Cc1ccc2nc(SCC(=O)N3CCN(c4ccccc4)CC3)[nH]c2c1
 : -4%[7.34 µM]	?
> COc1cc(-c2nnc(-c3ccccc3)o2)cc(OC)c1OC
 : -18%	-1%
> COc1cc(CN2CCNC(=O)C2CC(=O)NCCc2ncccc2C)cc(OC)c1 (stereo not given)
 : -3%	i
> CCOc1ccc(CCN2C(=S)N([C@@H](Cc3ccc(O)cc3)CN3CCC[C@@H]3CN3C(=S)NC[C@@H]3CC(C)C)C[C@@H]2CC(C)C)cc1
 : ?	?
> O=C(Nc1ccccc1N1CCCCC1)c1ccc(-c2cccc(Cl)c2)o1
 : 0%	-12%
> CCCCCCNc1ccc(C(=O)OCC)cc1
 : 4%	30%[activator]
> COc1cc2c(cc1OC)C(C(=O)N(C)C1CCCCC1)C1CCCCN1C2=O (stereo not given)
 : -11%	-6%
> Cc1ccc(S(=O)(=O)/N=C(/Nc2cccc(O)c2)c2ccccc2)cc1
 : -21%	-27%
> COc1cc(/C=N/Nc2ccccc2)ccc1OC(=O)c1cccs1
 : -9%	i

Entries listed so far containing a COOH group:
Values run as follows: VACV Venus inh	Vaccinia mCherry
> CCN(C(=O)Cc1c(C(=O)O)[nH]c2ccccc12)c1ccc(OC)cc1
 : -4%&1%	?
> C[C@@H](C(=O)O)[C@@H]1C[C@@]1(C)[C@@H](NC(=O)OCc1ccccc1)c1ccccc1
 : 5%	i

(more compounds)
Values run as follows: VACV Venus inh	Vaccinia mCherry
> CC(C)(C)NC(=O)CN(CCN1CCOCC1)C(=O)CNS(=O)(=O)c1ccccc1
 : -11%	i
> CC(=O)NCCNC(=O)C1(C)Cc2c(-c3cccc(NC(C)=O)c3)ccnc2O1 (stereo not given)
 : -2%	45%[activator]
> COc1ccc(NC(=S)N/N=C2\CC(C)(C)Oc3ccc(OC)cc32)cc1
 : -18%	i
> CCN(CC)C(=O)CSc1nnc(-c2ccc(S(=O)(=O)N3CCOCC3)cc2)n1C
 : 4%	-13%
> CCCCN1C(C(=O)Nc2cc(C)on2)=C(O)c2ccccc2S1(=O)=O
 : -16%	-15%
> CC(=O)N1CCc2cc(S(=O)(=O)NC(CC(C)C)C(=O)Nc3cc(C)cc(C)c3)ccc21 (stereo not given)
 : 2%	-5%
> CCOC(=O)c1[nH]c(C)c(C(=O)NC2CCN(C(=O)OCC)CC2)c1C
 : -12%	-12%[1.46 µM]
> Nc1ncnc2c1nc(SCCO)n2Cc1ccccc1
 : -6%	-9%
> CCCc1cc(C(=O)Nc2cccc(Cl)c2C)no1
 : -7%	34%[activator]
> CCCCNC(=O)CCn1c(=O)c2cccn2c2ccc(F)cc21
 : -2%	6%
> O=C(Nc1nc2ccc(S(=O)(=O)N3CCOCC3)cc2s1)c1cccs1
 : -3%	-5%
> COc1cc(O)c(C(CC(=O)N2CCCC2)c2ccc(N(C)C)cc2)c(OC)c1 (stereo not given)
 : -12%	-27%
> O=C(NCC(=O)N1CCN(C(c2ccccc2)c2ccccc2)CC1)c1ccccc1F
 : 9%	-5%
> CCC(=O)Oc1c(S(=O)(=O)c2ccc(C)cc2)c(C)nn1C(C)(C)C
 : ?	.
> O=C(NC1CCCCCCC1)C1CCN(S(=O)(=O)N2CCC3(CC2)OCCO3)CC1
 : -10%	-12%
> COc1ccc(CNC(=O)C(Cc2ccccc2)n2cccc2)cc1 (stereo not given)
 : -1%	0%
> CC(=O)CC(=O)NC1C2CC3CC(C2)CC1C3 (stereo not given)
 : -7%	i
> CCC(=O)N1CCCc2cc(S(=O)(=O)N3CCC(C(=O)Nc4cccc(Cl)c4)CC3)ccc21
 : -16%	-20%
> O=C(NC(c1ccccc1)c1ccccc1)C1CCCO1 (stereo not given)
 : 3%	10%
> O=C(CCn1c(=O)sc2ccccc21)Nc1nc2ccccc2s1
 : -16%	i
> CN(CC(=O)Nc1cccc(F)c1)C(=O)c1cc(S(=O)(=O)N2CCCCC2)ccc1N1CCOCC1
 : 0%	i
> Cc1cc2c(cc1C)N[C@]1(C[C@H]3CCCC(=O)N4CC[C@@H](C1)[C@@H]34)C(=Nc1ccccc1C)N2
 : -10%	-20%
> O=C(NCc1ccc(Cl)cc1)C1=Cc2cc(Br)ccc2OC1
 : -10%	-7%
> CCC(=O)c1ccc(OC)c(OC)c1
 : -9%	4%
> COc1ccc(OC)c(NC(=O)NNS(=O)(=O)c2ccc(C)cc2C)c1
 : -12%	-17%
> Cc1nncn1-c1ccc(C(=O)Nc2cc(F)ccc2F)cc1
 : 2%	0%
> CCCCNC(=O)C(NC(=O)c1ccc2ccccc2c1)C(=O)c1ccccc1 (stereo not given)
 : -14%	-23%
> O=C(Cn1cccc1C(=O)c1ccccc1)NCc1ccc2c(c1)OCO2
 : -6%	-6%
> CCOC(=O)c1cccnc1NC(=O)c1ccccc1
 : -22%	-6%
> COC(=O)c1ccc(-c2cc(CC3(C(=O)OC)CCN(C(=O)OC(C)(C)C)CC3)on2)cc1
 : -8%	i
> Cc1[nH]c(C)c(S(=O)(=O)N2CCCCC2)c1C(=O)N1CCCC1
 : -2%[7.34 µM]	-13%[7.34 µM]
> CCC(C)(C)NC(=O)CSc1nc(Cc2ccccc2)nc2ccccc12
 : -5%	-13%
> Cc1c(C(=O)NCCC2CCCN2C)cnn1-c1nccc(-c2ccccc2F)n1 (stereo not given)
 : 5%	-7%
> COc1ccccc1NS(=O)(=O)c1cc(C(=O)N2CCCCCC2)ccc1C
 : -13%	-13%
> CCOCCCNC(=O)C(NC(=O)c1ccccc1O)c1ccc(Cl)cc1 (stereo not given)
 : -19%	-21%
> COc1cc(NC(=O)c2cccnc2)ccc1NC(=O)c1ccccc1Cl
 : -9%	i
> O=C(Cn1c(=O)n(-c2ccccc2)c(=O)c2oc3ccccc3c21)Nc1ccccc1
 : -9%	-14%
> O=C(CCN1CCN(c2ccc(Cl)cc2)CC1)Nc1nccs1
 : -14%	-18%
> Cc1cc(C)nc(OC(=O)c2c(Cl)cc(Cl)cc2Cl)n1
 : ?	?
> O=C(NCCCn1ccnc1)c1ccc(Br)cc1
 : -9%	-19%
> COc1ccc(/C=N/NC(=O)c2ccc(Cl)cc2Cl)cc1COC(C)=O
 : -21%	-9%
> C=CCN1C(=O)S/C(=C\c2ccc3c(c2)n(C)c(=O)n3C)C1=O
 : -6%	i
> COc1ccc(C)cc1NC(=O)c1cccn(Cc2ccccc2Cl)c1=O
 : -13%	-16%
> O=Cc1ccc(CS)cc1
 : -10%	21%
> COC(=O)c1cccc(NC(=O)c2cc(OC)c(OC)c(OC)c2Br)c1
 : -3%	i

Four of the compounds above, with each value named.
C=CCN1C(=O)S/C(=C\c2ccc3c(c2)n(C)c(=O)n3C)C1=O
- VACV Venus inh: -6%
- Vaccinia mCherry: i
COc1ccc(C)cc1NC(=O)c1cccn(Cc2ccccc2Cl)c1=O
- VACV Venus inh: -13%
- Vaccinia mCherry: -16%
O=Cc1ccc(CS)cc1
- VACV Venus inh: -10%
- Vaccinia mCherry: 21%
COC(=O)c1cccc(NC(=O)c2cc(OC)c(OC)c(OC)c2Br)c1
- VACV Venus inh: -3%
- Vaccinia mCherry: i
